Mtb H37Rv: Confirmatory growth inhibition assay against Mycobacterium tuberculosis H37Rv, potency (AID 1949). actives 1.6% (n = 100,000). most inactive calls were filed without a number and no value below 0 was filed. inhibition, % at 10 µg/mL; hits with a dose series show IC50 in µg/mL;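 active = confirmed in a dose series; inconclusive = about 50% or more but not retested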;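 note: bacteria grown 7 days with compound before Alamar blue readout; 0% = untreated bacteria and 100% = reference antibiotic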
* = called active by the depositor; i = inactive; u = inconclusive. An excerpt (hit frequency here may not be typical).

SMILES	Mtb H37Rv
Cc1ccc(N(C(C)C(=O)N2CCCC2)S(C)(=O)=O)cc1C (stereo not given)	i
CC(C)c1ccc(-c2nc3c([nH]2)c(=O)n(C)c(=O)n3C)cc1	i
CC12CCC(C(=O)N(c3ccc(Cl)cc3)C1=O)C2(C)C (stereo not given)	1.1%
CS(=O)(=O)c1ccc(N2CCN(C3CC(=O)NC3=O)CC2)cc1 (stereo not given)	i
COc1ccc(NC(=O)c2ccoc2C)c(OC)c1	i
CN1CCN(S(=O)(=O)c2ccc(-c3ccc(Cl)cc3)cc2)CC1	i
Cc1cccc(C(=O)NC(C)c2nnc(SCC(=O)Nc3nccs3)n2C)c1 (stereo not given)	i
Cc1ccc(NC(=O)c2c(-c3ccccc3Cl)noc2C)nc1	i
O=C(CSc1nc2sc3c(c2c(=O)n1-c1ccccc1)CCCCC3)N1CCCCCC1	7.9%
O=C1Nc2ccc(F)cc2C12SCCS2	i
CCOC(=O)c1c(NC(=O)c2cc(-n3cnnc3)ccc2Cl)sc2c1CCCC2	u
CCC(C(=O)Nc1ccc(C(=O)N2CCCC2)cc1)c1ccccc1 (stereo not given)	6.9%
O=C(Cc1ccc(Br)cc1)Nc1nc2c(s1)CCCC2	31.8%
CC(=O)Nc1cccc(NC(=O)c2cc(-c3cccs3)nc3ccccc23)c1	u
Cc1cc(C)c(NC(=O)C(C(C)C)N2C(=O)c3ccccc3C2=O)c(Cl)c1 (stereo not given)	i
CN(C)c1ccc(CNc2ccccn2)cc1	i
CCOc1cc(C2C3=C(CCCC3=O)N(C)C3=C2C(=O)CCC3)ccc1OCc1cccc(F)c1	i
CN(c1ccc(O)cc1)c1nc(-c2ccncc2)cs1	i
O=C(Nc1nccs1)c1ccc2c(c1)C(=O)N(Cc1ccco1)C2=O	i
COc1ccc(S(=O)(=O)N(C)CC(=O)Nc2ccc(C(C)C)cc2)cc1	i
CCc1cccc(C)c1NC(=O)CSc1nnc(-c2ccncc2)n1-c1ccc(Cl)cc1	i
CC(C)(C)NC(=S)Nc1ccccc1	i
O=C(Nc1nnc(CCc2ccccc2)s1)C1CCCCC1	3.6%
COc1ccc(Cl)cc1NC(=O)c1ccc(N(Cc2ccc(C)cc2)S(C)(=O)=O)cc1	i
COCCCNCCCCOc1c(C)cccc1C(C)(C)C	i
(cont.)
SMILES	Mtb H37Rv
Cc1cc(C)c(-n2c(C)cc(CO)c2C)c(C)c1	i
O=C(Nc1ccc(Cl)cc1C(=O)c1ccccc1)c1ccc2c(c1)OCCO2	i
CC(C)(C)N(Cc1ccccc1)C(=O)COc1ccccc1	i
COc1ccccc1C(=O)ON1C(=O)c2ccccc2C1=O	4.5%
C=CCn1c(NCc2ccccc2O)nc2ccccc21	1.7%
COC(=O)c1ccc(NC(=O)CSc2ncn[nH]2)cc1	i
CCc1cc(=O)oc2cc(OCc3cccc(Br)c3)ccc12	i
CCc1ccc(OCC(=O)Nc2ccc(Cl)cc2Cl)c(Br)c1	i
Cn1c(SCC(=O)Nc2cccc3ccccc23)nnc1-c1ccccc1	i
COc1cc(Cl)c(C)cc1NC(=O)c1cc(Br)ccc1Cl	i
CCOc1cccc(OCCOCCN2CCOCC2)c1	i
CN1CCN(CC(=O)NCc2ccccc2)CC1	i
CC(C)Oc1ccc(C(=O)NC(=S)Nc2ccccc2N2CCOCC2)cc1	44.5%
CCCOc1ccc(N2C(=O)CC(SCCN)C2=O)cc1 (stereo not given)	i
O=C1c2ccccc2S(=O)(=O)N1CC(O)CN1c2ccccc2Sc2ccccc21 (stereo not given)	i
O=C(Nc1ccccc1)c1ccc(S(=O)(=O)NCc2ccncc2)cc1	i
CCOC(=O)c1ccc(NC(CC(=O)c2ccccc2)c2ccccc2)cc1 (stereo not given)	i
CC(C)CC(=O)NC(=S)N1CCCCCC1	i
COc1cccc(OC)c1C(=O)n1nc(C)cc1C	2.8%
COc1cc(C(=S)N2CCN(C(c3ccccc3)c3ccccc3)CC2)cc(OC)c1OC	i
Cc1cc(=O)oc2cc(OC(=O)c3cc4ccccc4oc3=O)ccc12	0.8%
Cc1ccc(Nc2ncnc(N)c2[N+](=O)[O-])c(Br)c1	0.9%
CC(=O)c1ccc(NC(=O)C23CCC(C)(c4nc5ccccc5nc42)C3(C)C)cc1 (stereo not given)	3.7%
O=C(NC1C2CC3CC(C2)CC1C3)c1ccc(N2CCN(C(=O)c3cccc(Cl)c3)CC2)c([N+](=O)[O-])c1 (stereo not given)	29.5%
O=S(=O)(Nc1ccncc1)c1ccc(Cl)c(Cl)c1	i
New compounds follow:
SMILES	Mtb H37Rv
COC(=O)c1ccc(C(=O)OC)c(NC(=O)c2cccc3ccccc23)c1	0.2%
O=C1CC(N2CCC(c3nc4ccccc4s3)CC2)C(=O)N1Cc1ccc(N2CCCC2=O)cc1 (stereo not given)	i
O=C1N=C(N2CCN(c3cccc4ccccc34)CC2)S/C1=C\c1ccccc1	23.6%
COc1ccc(NC(=O)Nc2cccc(C)n2)c(OC)c1	i
N#Cc1ccc(C(=O)Nc2cccc3ncccc23)c(F)c1	i
CC1CC(C)(C)CC2(C1)NC(=S)N(c1ccccc1)N2 (stereo not given)	i
Cc1nn(S(=O)(=O)c2ccc(Cl)cc2)c(C)c1Br	i
O=C(Nc1ccc2c(c1)ncn2C1CCCCC1)C(=O)c1c[nH]c2ccccc12	0.4%
CS(=O)(=O)Nc1ccc(C(=O)NC2CCCCC2)cc1	i
Cn1c(SCC(=O)Nc2ccc(Cl)cc2Cl)nc2ccccc2c1=O	i
O=C(OCc1ccc(Br)cc1)c1ccc(-c2nnc(-c3ccccc3)o2)cc1	i
COc1cccc(N(CC(=O)N2CCN(Cc3ccccc3)CC2)S(C)(=O)=O)c1	i
CCCC(=O)NC(=S)Nc1cc(Cl)c(O)c(Cl)c1	i
COc1cc(OC)cc(C(=O)Nc2cccc(NC(=O)c3cccc(Cl)c3)c2)c1	3.4%
CC1(C)CC(=O)C2=C(C1)N(Cc1ccco1)C(=O)NC2(C(F)(F)F)C(F)(F)F	i
C=CCn1c(SCC(=O)Nc2ccc(OC)cc2)nnc1-c1ccc2ccccc2n1	0.4%
CCN(CC1COc2ccccc2O1)S(=O)(=O)c1ccc(C)cc1 (stereo not given)	3.5%
COc1cccc(C(=O)Nn2c(=S)[nH]c3ccccc3c2=O)c1	i
CN1CCN(CCC(=O)Nc2ccc(Cl)c(C(F)(F)F)c2)CC1	i
COc1cccc(CSc2nc3c(c(-c4ccccc4)c2C#N)CN(C)CC3)c1	22.8µg/mL*
CCc1nnc(NC(=O)CSc2nnc3c(n2)[nH]c2ccccc23)s1	i
CCOC(=O)c1c(-c2ccc(OCC)cc2)csc1NC(=O)c1ccccc1F	i
O=C(Nc1ccc(OC(=O)c2ccco2)cc1)c1ccco1	i
CCN(CC)CCOc1cc(C)ccc1C	i
CCN(CC)c1ccc2c(c1)OC(N)=C(C#N)C2c1ccc(C(=O)OC)cc1 (stereo not given)	0.6%
Remaining list, next part:
SMILES	Mtb H37Rv
CC(C)Oc1ccc(NC(=O)C(C)C)cc1	i
Cc1cccc(OCC(=O)c2ccc(O)cc2O)c1	5.4%
Cc1ccc2c(c1)c1c(n2CC(O)Cn2c(C)nc3ccccc32)C(=O)CCC1 (stereo not given)	i
CCC(CC)NCc1ccc(OC)cc1OC	3.3%
Cc1cc(C)n(C(=O)c2ccc(C(=O)n3nc(C)cc3C)cc2)n1	i
c1ccc(Cc2nnc(SCc3cccc4ccccc34)o2)cc1	11.9%
O=C(c1ccc2c(c1)OCCO2)N1CCN(S(=O)(=O)c2ccccc2)CC1	i
Cc1cc(=O)[nH]c2c1c(C)nn2C1CCCCC1	i
Cc1n[nH]c(C)c1N1C(=O)c2cccc3c(N4CCCCCC4)ccc(c23)C1=O	i
COc1ccc(NC(=S)N2CCC(C(O)(c3ccccc3)c3ccccc3)CC2)cc1	i
S=c1[nH]nc(-c2ccccc2Cl)n1Cc1ccco1	i
COc1ccc(C2CC(c3cccs3)=NN2C(C)=O)cc1 (stereo not given)	i
CCC(C)c1ccc(NC(=S)Nc2ccc(C(=O)N3CCCCC3)cc2)cc1 (stereo not given)	i
O=c1[nH]c2ccc(Cl)cc2c(-c2ccccc2)c1N1CCCC1	i
CCc1c(C)c2ccc(OCC(=O)N3CCc4ccccc43)cc2oc1=O	i
COc1cccc(-n2nnnc2S(=O)(=O)Cc2ccccc2)c1	0.38µg/mL*
Cc1ccc(NC(=O)Nc2ccccc2C(F)(F)F)c(OC(F)F)c1	2.7%
CC(=O)Nc1cccc(N2C(=O)CC(Cc3ccc(C)cc3)C2=O)c1 (stereo not given)	0.7%
Cc1nnc2c(Nc3ccc(I)cc3)nc3nonc3n12	5.6%
CC(C)NC(=O)c1ccc(-c2ccc(Cl)c(C(F)(F)F)c2)o1	i
Cc1cc(C)nc(Nc2n[nH]c(-c3ccc(NC(=O)c4ccccc4)cc3)n2)n1	0.5%
Cc1c(NC(=O)/C=C/c2cccc3ccccc23)c(=O)n(-c2ccccc2)n1C	i
O=C(CN1C(=O)c2cccc3cccc1c23)NCc1ccco1	i
C=CCn1c(SCC(=O)NCCc2ccc(OC)cc2)nc2sc3c(c2c1=O)CCC(C)C3 (stereo not given)	i
CCCCC(=O)NC(c1ccc(C(C)C)cc1)c1ccc2ccccc2c1O (stereo not given)	7.7%

Fetched by structure from above, 2 records:
SMILES	Mtb H37Rv
CC(C)Oc1ccc(NC(=O)C(C)C)cc1	i
c1ccc(Cc2nnc(SCc3cccc4ccccc34)o2)cc1	11.9%

The list goes on:
SMILES	Mtb H37Rv
Cc1c(C(=O)NCCSCc2cccc(Cl)c2)cccc1[N+](=O)[O-]	i
Cc1cccc(CN(CC(=O)NC2CC2)S(=O)(=O)c2ccc(Cl)cc2)c1	i
CCOC(=O)c1ccc(N)c(I)c1	i
Nc1c(C(=O)NCCc2ccccc2)sc2nc3c(cc12)CCCCC3	i
CCc1ccc(OCC(=O)Nc2sc(C)c(C)c2C(N)=O)cc1	i
COc1ccc(-c2cc(C(F)(F)F)n3nc(C(=O)Nc4cccnc4)cc3n2)cc1	i
COc1ccc(-c2cc(=O)oc3c(C)c(OCC(=O)c4ccccc4)ccc23)cc1	i
Cc1cccc(-n2c(C34CC5CC(CC(C5)C3)C4)n[nH]c2=S)c1	1.6%
O=C(Cc1c(F)cccc1Cl)Nc1cccc(S(=O)(=O)N2CCOCC2)c1	i
C=CCNC(=O)c1ccccc1NC(=O)c1ccc(N(C)S(=O)(=O)c2ccccc2)cc1	32.2%
COc1ccc(C2=NN(c3ccc(Cl)c(Cl)c3)C(c3ccc(F)cc3)C2)cc1 (stereo not given)	28.8%
NC(=O)C1CCN(C(=O)c2cccc(C#CC3(O)CCCCC3)c2)CC1	i
CCOC(=O)C1CCN(C(=S)Nc2cc(C)ccc2C)CC1	0.2%
Cc1ccc(S(=O)(=O)N2CCCCC2C)c(C)c1C (stereo not given)	i
COc1ccc(CNC(=O)c2cc3cc(Br)ccc3oc2=O)cc1	1.5%
CNS(=O)(=O)c1ccc2oc3ccc(S(=O)(=O)NC)cc3c2c1	i
CC1=C(C(=O)OCc2ccccc2)C(c2ccsc2)NC(=O)N1C (stereo not given)	i
Cc1sc2ncn(CCc3ccccc3)c(=O)c2c1C	7.6%
CC(C)CNC(=O)C1CC(=O)N(c2ccc(Br)cc2)C1 (stereo not given)	i
Cc1c(C(=O)OC(C)C)sc(NC(=O)c2ccc([N+](=O)[O-])cc2)c1C(=O)OC(C)C	i
Cc1nc([N+](=O)[O-])c(NCCCO)n1Cc1ccccc1	i
CCN1C(=O)c2cccc3c([N+](=O)[O-])ccc(c23)C1=O	i
CC(=O)Nc1ccc(N2CCC(C)CC2)c([N+](=O)[O-])c1	3.1%
Ic1ccc(OCCSc2ncccn2)cc1	3.3%
CCOc1ccc(NC(=O)C(C)Sc2nnc(C)n2Cc2ccccc2)cc1 (stereo not given)	i

Structural class, the compounds so far with an NH in an aromatic ring
SMILES	Mtb H37Rv
CC(C)c1ccc(-c2nc3c([nH]2)c(=O)n(C)c(=O)n3C)cc1	i
COC(=O)c1ccc(NC(=O)CSc2ncn[nH]2)cc1	i
O=C(Nc1ccc2c(c1)ncn2C1CCCCC1)C(=O)c1c[nH]c2ccccc12	0.4%
COc1cccc(C(=O)Nn2c(=S)[nH]c3ccccc3c2=O)c1	i
CCc1nnc(NC(=O)CSc2nnc3c(n2)[nH]c2ccccc23)s1	i
Cc1cc(=O)[nH]c2c1c(C)nn2C1CCCCC1	i
Cc1n[nH]c(C)c1N1C(=O)c2cccc3c(N4CCCCCC4)ccc(c23)C1=O	i
S=c1[nH]nc(-c2ccccc2Cl)n1Cc1ccco1	i
O=c1[nH]c2ccc(Cl)cc2c(-c2ccccc2)c1N1CCCC1	i
Cc1cc(C)nc(Nc2n[nH]c(-c3ccc(NC(=O)c4ccccc4)cc3)n2)n1	0.5%
Cc1cccc(-n2c(C34CC5CC(CC(C5)C3)C4)n[nH]c2=S)c1	1.6%

More compounds:
SMILES	Mtb H37Rv
COc1ccccc1C1(CC(=O)Nc2nccs2)CCOC(C(C)C)C1 (stereo not given)	2.1%
CCCCOc1ccc(CO)cc1OC	2.4%
O=C1CC(Cc2ccccc2)C(=O)N1CCCn1ccnc1 (stereo not given)	i
Cc1nnc(SCC(=O)Nc2cccc(Cl)c2Cl)n1-c1ccc(F)cc1	32.3%
Cc1ccccc1Cn1c(CC(C)C)nc2ccccc21	i
COc1ccc(Cl)cc1NC(=O)c1c(NCc2ccc(C)o2)sc2c1CCCC2	i
COCCn1c(-c2ccccc2)n[nH]c1=S	i
COc1ccc(OCC(=O)N2c3ccc(F)cc3CCC2C)cc1 (stereo not given)	i
CCOc1ccccc1OCC(=O)Nc1ccc(OC)c(Cl)c1	i
CC(=O)Nc1ccc(C(=O)N2CCN(C(=O)c3ccco3)CC2)cc1	11.4%
CCCCc1cc(=O)oc2cc(OC(C)c3ccccc3)ccc12 (stereo not given)	41.4%
CCCOc1ccc(N2C(=O)CC(N3CCC(O)(c4cccc(C(F)(F)F)c4)CC3)C2=O)cc1 (stereo not given)	i
Cc1cc(OCCn2cncn2)ccc1[N+](=O)[O-]	0.8%

Part of the list above in order of molar mass, smallest number first:
SMILES	Mtb H37Rv
COCCn1c(-c2ccccc2)n[nH]c1=S	i
COc1ccc(OCC(=O)N2c3ccc(F)cc3CCC2C)cc1 (stereo not given)	i
COc1ccccc1C1(CC(=O)Nc2nccs2)CCOC(C(C)C)C1 (stereo not given)	2.1%
